Compound activity (PubChem BioAssay)
Apoferritin bind = candidate novel general anesthetic via apoferritin binding | 0.074% of 350,000 active | P02791 | Potency, µM (titrated, usually from 77.5 µM), for inactives: at the top dose activity change, negative = displacement, hits mostly inhibitors | apoferritin/1-aminoanthracene competitive binding, fluorescence | AID 485281; further: nearly all actives have a fitted effect of over 20% in size
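Horse-spleen apoferritin (10 uM) in 50% saturated 1-aminoanthracene in PBS was incubated 10 min at room temperature with compound. Fluorescence (ex 380, em 535 nm) was normalized to free and bound 1-AMA, with concentration-response fitted by a four-parameter Hill equation.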
G9a inh = inhibitors of human histone lysine methyltransferase G9a; Q96KQ7; G9a H3K9 monomethylation, AlphaScreen, 2 h; Potency, µM (doses to about 102 µM), without a hit: at the top dose activity, negative = inhibition, hits mostly inhibitors; 8.8% of 350,000 active; further: nearly all actives have a fitted effect of over 75% in size
Target sequence (Q96KQ7 913-1193 limits assumed): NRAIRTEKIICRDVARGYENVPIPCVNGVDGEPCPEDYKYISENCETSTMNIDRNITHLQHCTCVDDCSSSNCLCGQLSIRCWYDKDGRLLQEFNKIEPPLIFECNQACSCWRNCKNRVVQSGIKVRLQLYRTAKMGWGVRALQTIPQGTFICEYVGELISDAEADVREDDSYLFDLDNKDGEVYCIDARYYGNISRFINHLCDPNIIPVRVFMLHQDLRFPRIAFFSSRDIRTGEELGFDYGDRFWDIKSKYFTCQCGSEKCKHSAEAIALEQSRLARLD
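G9a (20 nM) preincubated 15 min RT with compounds, then 500 nM biotinylated H3K9 peptide and 20 uM SAM added; 2 h RT reaction. Monomethyl-H3K9 product detected by AlphaScreen with anti-H3K9me1 antibody, streptavidin donor and anti-rabbit IgG acceptor beads.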
The depositor's hits bear a star; ? = inconclusive; nt = no result given; & = joins results of further samples; [ ] = another dose, or the depositor's remark. The call rests on the fitted dose curve; in most records, active means well fitted inhibition curve with a large enough effect; inconclusive means small, poorly fitted or top-dose-only effect; inactive means no such curve, though single readings can be large or run the other way. On the % scale 0 is the no-effect control and ±100 the full control effect; potency means the concentration at half of the fitted maximal effect.

Molecule	Apoferritin bind	G9a inh
Cc1cccc(NC(=O)CSc2nc(NS(=O)(=O)c3ccccc3)cc(=O)[nH]2)c1	-9%	nt
COc1ccc(-c2csc3nc(-c4ccc(C)cc4)oc(=O)c23)cc1OC	3%&-4%	-18%[59 µM]
Cc1ccc(NC(=O)CSc2nc(NS(=O)(=O)c3ccc(C)cc3)cc(=O)[nH]2)cc1	-16%	0%[2.33 µM]
O=C(COC(=O)/C=C/c1ccco1)NCc1ccc2c(c1)OCO2	-19%	56µM*
COc1cccc(CN2CCC(C(=O)N3CCC(C)CC3)CC2)c1	-7%	18µM*
CN(C)S(=O)(=O)c1ccc(C(=O)OCC(=O)NCc2ccco2)cc1	-7%	50µM*
CC(C)C(=O)NC(C)C(c1cccs1)N1CCN(c2ccccc2)CC1 (stereo unspecified)	1%	?
O=c1nc(N/N=C/c2ccco2)cn[nH]1	-9%	5%
O=C(COC(=O)c1cncc(Br)c1)NCc1ccco1	-1%	-22%[0.0925 µM]
COc1nc(N/N=C/c2ccc(-c3ccccc3[N+](=O)[O-])o2)nc(N2CCOCC2)n1	-17%	3.2µM*

A second format for part of the listing above:
O=C(COC(=O)/C=C/c1ccco1)NCc1ccc2c(c1)OCO2
  Apoferritin bind: -19%; G9a inh: 56µM*
COc1cccc(CN2CCC(C(=O)N3CCC(C)CC3)CC2)c1
  Apoferritin bind: -7%; G9a inh: 18µM*
CN(C)S(=O)(=O)c1ccc(C(=O)OCC(=O)NCc2ccco2)cc1
  Apoferritin bind: -7%; G9a inh: 50µM*

Compound profiles (already shown).
Listed for CN(C)S(=O)(=O)c1ccc(C(=O)OCC(=O)NCc2ccco2)cc1 → Apoferritin bind = -7%; G9a inh = 50µM*
Listed for COc1ccc(-c2csc3nc(-c4ccc(C)cc4)oc(=O)c23)cc1OC → Apoferritin bind = 3%&-4%; G9a inh = -18%[59 µM]

Not all compounds are listed, and most or all hits are left out here.
